Lassa entry inh: Lassa virus entry inhibition; Lassa virus pseudotype entry inhibition, cell reporter; control for the full effect not named in the record; AID 540256; Potency, µM (highest dose often 37.9 µM), without a hit: top-dose activity change, negative = inhibition, hits mostly inhibitors; actives 1.2% (n = 300,000); active means well fitted inhibition curve with a large enough effect; inconclusive means small, poorly fitted or top-dose-only effect, or effect the other way; inactive means flat fitted curve, though single readings scatter; tested in HEK293 cells; further: on the % scale 0 is the no-effect control and ±100 the full control effect; nearly all actives have a fitted effect of over 50% in size; luciferase read-out
RE007 growth inh: less growth of the S. pombe RE007 Vpr strain; S. pombe RE007 Vpr strain, BacTiter-Glo ATP luminescence, 24 h; control for the full effect not named in the record; Potency, µM (top dose mostly 92.2 µM), without a hit: at the highest dose activity change, negative = less growth; actives 0.21% (n = 360,000); AID 651644; active = well fitted falling curve with a large enough effect; inconclusive = small, poorly fitted or top-dose-only effect; inactive = no such curve, though single readings can be large or run the other way;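 further: on the % scale 0 is the no-effect control and ±100 the full control effect; nearly all actives have a fitted effect of over 50% in size; the assay follows cell death caused by Vpr and the record does not say whether a fall means rescue or toxicity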
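Fission yeast RE007 carrying one integrated HIV-1 vpr copy, seeded at OD 0.01 in PMG+AL medium with 23 nL pinned compound. Grown 24 h at 30 degrees; viability read by BacTiter-Glo luminescence after 5 min.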
StopGo reporter: lowers the luciferase signal of an FMDV 2A StopGo reporter | Potency, µM (top dose mostly 57.9 µM), for inactives: top-dose signal change, negative = less light | human cells with a luciferase reporter of 2A StopGo recoding; control for the full effect not named in the record | actives 1.2% (n = 410,000); active = well fitted falling curve with a large enough effect; inconclusive = small, poorly fitted or top-dose-only effect; inactive = no such curve, though single readings can be large or run the other way; tested in HEK293T cells; further: on the % scale 0 is the no-effect control and ±100 the full control effect; nearly all actives have a fitted effect of over 45% in size; luciferase light after 4 h
SARS PLP yeast: inhibitors of SARS-CoV papain-like protease in yeast. S. cerevisiae expressing SARS-CoV PLpro, growth rescue; control for the full effect not named in the record. Potency, µM (series often up to 32.9 µM), without a hit: top-dose activity, positive = growth rescue. actives 0.19% (n = 330,000). AID 485353; further: 0% is about no effect; nearly all actives have a fitted effect of over 55% in size; growth read by luminescence after 48 h
Cruzain inh noDet: blocks cruzain activity in detergent-free assay; P25779; purified cruzain, Z-FR-AMC fluorescence, no detergent; Potency, µM, without a hit: max response, negative = inhibition, actives largely listed as inhibitors; actives 2.3% (n = 200,000); active means well fitted curve in the direction sought with a large enough effect; inconclusive means small, poorly fitted or top-dose-only effect, or another doubt; inactive means no such curve, though single readings can be large; an effect the other way counts as inactive or inconclusive;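 further: plate controls were enzyme without inhibitor for no effect and buffer without enzyme for full effect; nearly all actives have a fitted effect of over 40% in size; top concentration of the series not given in the record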
Target sequence (P25779 123-467 limits assumed): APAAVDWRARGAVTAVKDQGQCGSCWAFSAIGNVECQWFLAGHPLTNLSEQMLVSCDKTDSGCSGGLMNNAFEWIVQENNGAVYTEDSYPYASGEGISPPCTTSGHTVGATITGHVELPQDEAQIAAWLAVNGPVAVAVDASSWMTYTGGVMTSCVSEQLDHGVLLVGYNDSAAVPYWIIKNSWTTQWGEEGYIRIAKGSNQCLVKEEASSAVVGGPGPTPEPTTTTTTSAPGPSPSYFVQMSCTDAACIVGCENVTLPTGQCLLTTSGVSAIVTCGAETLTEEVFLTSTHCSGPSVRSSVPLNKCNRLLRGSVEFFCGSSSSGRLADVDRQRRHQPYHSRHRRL
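Detergent-free condition (0.00005% Triton X-100) in acetate buffer pH 5.5 with DTT. 1.5 nM enzyme and compound were pre-mixed 15 min, then 2 uM Z-FR-AMC substrate added; reaction progress from fluorescence change between first and third reads (60 s).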
Cruzain Triton: blocks cruzain activity in presence of Triton detergent. P25779. purified cruzain, Z-FR-AMC fluorescence, 0.01% Triton. Potency, µM, for the others: max response, negative = inhibition, most hits filed as inhibitors. actives 0.43% (n = 200,000). AID 1478; active means well fitted curve in the direction sought with a large enough effect; inconclusive means small, poorly fitted or top-dose-only effect, or another doubt; inactive means no such curve, though single readings can be large; an effect the other way counts as inactive or inconclusive;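 further: plate controls were neutral wells for no effect and buffer without enzyme for full effect; nearly all actives have a fitted effect of over 40% in size; top concentration of the series not given in the record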
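Detergent-containing arm of a paired screen for aggregation-based inhibition: 0.01% Triton X-100 present. Cruzain at 1.5 nM cleaved 2 uM Z-FR-AMC at pH 5.5 with 5 mM DTT; AMC fluorescence gain over 60 s measured activity.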
NS1 function inh: inhibitors of influenza NS1 protein function; S. cerevisiae slowed by influenza A NS1, growth recovery by OD600; Potency, µM (series often up to 46.1 µM), for inactives: at the highest dose activity, positive = more growth; actives 0.4% (n = 270,000); AID 2326; further: actives are rising curves; nearly all actives have a fitted effect of over 50% in size
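Recovery from NS1-induced slow growth read by OD600 in budding yeast switched to galactose assay medium (pH 6.0, -URA) at 1:100 dilution. Compound 23 nl per well; the matching strain lacking NS1 serves as control.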
Marburg entry inh: blocks Marburg virus binding to or entry into cells | Marburg virus pseudotyped entry inhibition, cell reporter; control for the full effect not named in the record; about a third of the inactives were read at about 46 µM | Potency, µM (titrated, usually from 37.8 µM), without a hit: at the top dose activity change, negative = inhibition, actives largely listed as inhibitors | actives 1.8% (n = 300,000) | AID 540276; active = well fitted inhibition curve with a large enough effect; inconclusive = small, poorly fitted or top-dose-only effect, or effect the other way; inactive = flat fitted curve, though single readings scatter; tested in HEK293 cells; about a fifth of its hits are not listed in these tables; further: on the % scale 0 is the no-effect control and ±100 the full control effect; luciferase read-out
Numbers without * were called inactive; ? = inconclusive; nt = not tested or not shown; [ ] = another dose, or the depositor's remark. Unless noted, the call rests on the fitted dose curve; in most records, active means well fitted rising curve with a large enough effect; inconclusive means small, poorly fitted or top-dose-only effect; inactive means no such curve, though single readings can be large or run the other way. Potency means the concentration at half of the fitted maximal effect.

SMILES	Lassa entry inh	RE007 growth inh	StopGo reporter	SARS PLP yeast	Cruzain inh noDet	Cruzain Triton	NS1 function inh	Marburg entry inh
COC(=O)c1ccc(N=C(c2ccccc2)c2c(O)n(C)c(=O)n(C)c2=O)cc1	nt	1%	-31%	-2%	nt	nt	4%	nt
CC12CCC(C(=O)N3CCN(Cc4ccccc4)CC3)(OC1=O)C2(C)C (configuration not stated)	?	-10%	nt	7%	-2%	12%	-13%	-1%
Cn1cccc1Cc1nnc(SCC(=O)N2CCCCCC2)n1CCc1ccccc1	nt	-5%	-8%	3%	19%	-0.2%	19%	0%
Cc1cc(C)c2nc(NC(=O)c3ccco3)sc2c1	nt	-1%	-17%	0%	nt	nt	-4%	nt
Cc1ccc(Oc2ccc(NC(=O)CSc3n[nH]c(N)n3)cc2)cc1	?	7%	-7%	17%	?	-3.5%	5%	-1%
C=CCOc1ccc(Br)cc1CNC(C)(C)CO	nt	-9%	-10%	1%	nt	nt	0%	nt
O=C(CN1C(=O)NC2(CCCC2)C1=O)NC(c1ccccc1)c1ccccc1	-14%[46.1 µM]	-7%	-3%	-5%	nt	nt	nt	?
COc1ccc(C(C)=O)cc1CC(=O)Nc1ccc2c(c1)CCC2	4%[46.1 µM]	-7%	0%	-1%	nt	nt	12%	-16%[46.1 µM]
CN1CCN(C2=Cc3ccc(Cl)cc3Sc3ccc(F)cc32)CC1	?	?	-1%	-21%	3%	-12%	-6%	7.9µM*
CC1=CC2OC3CC4OC(=O)C=CC=CC(=O)OCCC(C)C(O)C(=O)OCC2(CC1)C4(C)C31CO1 (configuration not stated)	nt	?	-22%	nt	nt	nt	nt	nt
CCOC(=O)c1c(S(=O)(=O)NCC(=O)Nc2ccccc2OC)c(C)n(C)c1C	nt	-9%	-1%	?	nt	nt	3%	nt
COc1ccc(-c2nc(SCC(=O)NCc3ccccc3Cl)n[nH]2)cc1	?	nt	-24%	nt	-14%	-2.2%	nt	nt

One compound at a time, from the list above. Screens in order: Lassa entry inh	RE007 growth inh	StopGo reporter	SARS PLP yeast	Cruzain inh noDet	Cruzain Triton	NS1 function inh	Marburg entry inh
COC(=O)c1ccc(N=C(c2ccccc2)c2c(O)n(C)c(=O)n(C)c2=O)cc1 is listed with nt	1%	-31%	-2%	nt	nt	4%	nt
C=CCOc1ccc(Br)cc1CNC(C)(C)CO is listed with nt	-9%	-10%	1%	nt	nt	0%	nt

Additional entries.
SMILES	Lassa entry inh	RE007 growth inh	StopGo reporter	SARS PLP yeast	Cruzain inh noDet	Cruzain Triton	NS1 function inh	Marburg entry inh
COc1ccc(C)cc1-n1c(C)cc(C=O)c1C	-16%	1%	-4%	0%	nt	nt	4%	-10%[46.1 µM]
CN(C)c1ccc(CNC(=O)Cn2c(=O)oc3cc(S(=O)(=O)NCc4ccccc4)ccc32)cc1	?	nt	14%	nt	3%	-3.6%	nt	nt
COc1ccc(CCNC(=O)c2cc3c(=O)[nH]c4ccc(C)cc4c3s2)cc1OC	-29%[46.1 µM]	nt	-17%	nt	?	-4.3%	nt	0%[46.1 µM]
O=C(CO/N=C/c1ccccc1OC(F)F)NC1CCCCC1	4%	-8%	8%	-5%	-19%	-2.4%	4%	?
Cc1nc(SCCC(=O)O)c2ccccc2n1	17%	0%	nt	4%	?	-2.7%	10%	-1%
Cc1ccc(O)c(NC(=O)c2ccc3c(c2)C(=O)N(Cc2cccnc2)C3=O)c1	14%	-1%	0%	-2%	nt	nt	5%	29%
Cc1ccc(C)c(NC(=O)C2C(c3ccccc3)C2(Cl)Cl)c1 (configuration not stated)	?	-3%	nt	-18%	4%	-1.3%	-4%	-15%
CC(Cc1cccs1)NC(=O)c1cccs1 (configuration not stated)	-5%[46.1 µM]	5%	35%[activator]	-3%	nt	nt	nt	?
CCOc1ccc(NC(=O)C2CCN(S(=O)(=O)c3c(C)noc3/C=C/c3cccs3)CC2)cc1	8%[46.1 µM]	nt	-23%	nt	-4%	-2.4%	nt	20%[46.1 µM]
COC(=O)c1ccc(NC(=O)CC2C(=O)N(c3cccc(OC)c3)C(=O)N2Cc2ccco2)cc1 (configuration not stated)	-18%[46.1 µM]	nt	-3%	nt	-11%	-5.0%	nt	nt
CC1CN(c2nc3ccccc3cc2-c2ccccc2)CC(C)O1 (configuration not stated)	2%[46.1 µM]	-15%	-19%	-8%	nt	nt	nt	?
COc1ccc(CN2C(=NC(=O)c3ccccc3)SC3CS(=O)(=O)CC32)cc1 (configuration not stated)	nt	-2%	6%	2%	nt	nt	9%	nt
Cc1cc(C)nc(N2CCC(C(=O)NCC3CCCCC3)CC2)n1	nt	-1%	-20%	6%	7%	3.4%	-11%	0%
C/C=C\C=C/C(=O)Nc1cccc(C2=NOC3(C2)C[C@@H](C(N)=O)N(C(=O)CCCCC)C3)c1 (some centres not stated)	nt	-10%	-11%	1%	nt	nt	3%	nt
O=C(Cn1nnc2ccccc21)OCC(=O)c1ccc(F)cc1	-2%	15%	-17%	1%	nt	nt	-6%	-27%[14.2 µM]
CCn1c(Cc2ccccc2)nnc1SCC(=O)Nc1nc2ccccc2s1	1%	-1%	-1%	-2%	?	3.2%	10%	?
COc1cccc(N2C(=O)CN(Cc3ccccc3)C2=S)c1	nt	25%	-13%	0%	nt	nt	3%	nt
CCCc1noc(-c2ccc(-c3ccccc3)cc2)n1	5%	-9%	30%[activator]	13%	-1%	1.4%	-63%	?
Cc1ccc(-c2nc3nc(C)cc(N4CCN(c5cc(Cl)ccc5C)CC4)n3n2)cc1	12%[46.1 µM]	nt	-8%	nt	2%	-0.1%	nt	9%[46.1 µM]
Cc1ccc(C)c(NC2=C(Cl)C(=O)OC2OC(=O)c2ccco2)c1 (configuration not stated)	?	3%	nt	-10%	-5%	-4.2%	17%	-8%
C#CCOc1ccc(/C=N/NC(=O)c2cccnc2)cc1OCC	5%[46.1 µM]	8%	16%	2%	nt	nt	nt	?
COc1ccc(-n2c(C)cc(C(=O)CSc3nn4c(=O)c(C(C)(C)C)nnc4s3)c2C)cc1	?	-1%	-22%	-2%	-13%	-2.7%	2%	?
O=C(O)COCC(=O)Nc1ccc2c(c1)oc1ccccc12	nt	5%	-18%	-3%	nt	nt	1%	nt
O=C(CCN1CCN(C/C=C/c2ccccc2)CC1)Nc1ccccc1Cl	nt	-7%	-19%	3%	nt	nt	-3%	nt
Cc1cc(C)c2oc(-c3cccc(NC(=O)c4cccc(F)c4)c3C)nc2c1	-7%[46.1 µM]	nt	-3%	nt	-10%	1.5%	nt	20%[46.1 µM]
CC(=O)Nc1ccc(Nc2cc(C)c3ccccc3n2)cc1	nt	-1%	-6%	-2%	nt	nt	-13%	nt
COc1ccc(CCNCC(=O)N2C(C)CCCC2C)cc1OC (configuration not stated)	-13%	-4%	-23%	-1%	nt	nt	nt	-18%[46.1 µM]
COCCn1cnc2c1c(=O)n(CC(=O)NC(=O)NC(C)(C)C)c(=O)n2Cc1ccccc1	-13%[46.1 µM]	1%	-5%	4%	nt	nt	3%	15%[46.1 µM]
CCS(=O)(=O)N1Cc2ccccc2CC1C(=O)N(C)CC(=O)Nc1cccc(F)c1 (configuration not stated)	11%	-1%	27%	-1%	nt	nt	nt	0%
O=C(COC(=O)c1ccc(S(=O)(=O)NCc2ccco2)cc1)NCc1ccccc1	-1%[46.1 µM]	-7%	-19%	10%	nt	nt	nt	-10%[46.1 µM]
CCCC(=O)NCCc1cc2c(C)ccc(C)c2[nH]c1=O	12%	13%	-13%	-6%	-2%	-2.4%	-40%	-19%
COC(=O)C(C)Sc1ccc2nnc(-c3cccc(F)c3)n2n1 (configuration not stated)	nt	-10%	-7%	11%	5%	-4.3%	-41%	nt
CC(C)(C)OC(=O)N1CCC(c2c(C(=O)NCc3ccccc3)cnn2-c2ccccc2)CC1	?	nt	0%	nt	25%	-5.6%	nt	nt
CC1(c2ccccc2)NC(=O)N(CC(=O)NCCC2=CCCCC2)C1=O (configuration not stated)	21%	-12%	8%	2%	3%	7.4%	9%	13%
O=[N+]([O-])c1cccnc1Oc1ccc(OCc2ccccc2)cc1	nt	5%	31%[activator]	-2%	nt	nt	3%	nt
CC(Cc1ccccc1)NC(=O)CCCCC(=O)NC(C)Cc1ccccc1 (configuration not stated)	-22%[46.1 µM]	-3%	-17%	5%	nt	nt	1%	8%[46.1 µM]
COC(=O)c1ccc(C(=O)NC(=S)Nc2nc3c(s2)CCCC3)cc1	?	nt	-4%	-2%	13%	-6.1%	13%	?
COc1ccc(NC(=O)CC2C(=O)N(c3ccc(C)cc3)C(=O)N2Cc2ccc3c(c2)OCO3)cc1 (configuration not stated)	?	nt	-22%	nt	3%	1.2%	nt	-21%[46.1 µM]
c1ccc(-c2cnn3nnnc3n2)cc1	-6%	-20%	1%	1%	?	-2.3%	1%	0%[46.1 µM]
O=C(Nc1ccc(F)cc1)c1ccc(=O)[nH]n1	11%[46.1 µM]	-9%	0%	-1%	nt	nt	4%	25%[46.1 µM]
CCC(=O)c1c[nH]c(C(=O)NCCCN2CCOCC2)c1	4%	5%	4%	7%	2%	2.9%	1%	-5%[46.1 µM]
CCOc1ccccc1N1CC(C(=O)Nc2ccc(S(=O)(=O)N3CCCCC3)cc2)CC1=O (configuration not stated)	?	0%	?	-2%	nt	nt	nt	?
Cc1cccn2c(=O)c3cc(C(=O)N4CCCC(C)C4)sc3nc12 (configuration not stated)	?	-9%	62%[activator]	-1%	nt	nt	-9%	26%[46.1 µM]
Cc1ccc(NC(=O)CN2C(=O)N/C(=C/c3ccc(C)s3)C2=O)cc1	-4%	-22%	-19%	16%	?	1.0%	5%	17%
CCOC(=O)N1CCN(S(=O)(=O)c2ccc(C(=O)N(CCCN(C)C)c3nc4ccc(Cl)cc4s3)cc2)CC1	nt	2%	-10%	-1%	nt	nt	-2%	nt

Compound activity (PubChem)
